Screens: PubChem BioAssay, Johns Hopkins Ion Channel Center
KCNQ2 pot: potentiators of rat KCNQ2 potassium channel. CHO-K1 KCNQ2, FluxOR thallium flux fluorescence; stronger effect = higher value. hit rate 0.54% among 310,000. B-score at 10 µM. Potassium voltage-gated channel subfamily KQT member 2 (Rattus norvegicus), O88943;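 active means fluorescence ratio B-score at least 3 SD of library B-scores, with initial fluorescence B-score within 3 SD, cut at about 5.3 in these data; same plate scores as AID 2156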;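 further: B-score of peak minus minimum over baseline fluorescence ratio after K+ and Tl+ stimulus; positive B-score means potentiation of KCNQ2 with more thallium influx and brighter signal; only the inactives scoring about 0 or higher are listed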
Target sequence (O88943 whole entry, looked up): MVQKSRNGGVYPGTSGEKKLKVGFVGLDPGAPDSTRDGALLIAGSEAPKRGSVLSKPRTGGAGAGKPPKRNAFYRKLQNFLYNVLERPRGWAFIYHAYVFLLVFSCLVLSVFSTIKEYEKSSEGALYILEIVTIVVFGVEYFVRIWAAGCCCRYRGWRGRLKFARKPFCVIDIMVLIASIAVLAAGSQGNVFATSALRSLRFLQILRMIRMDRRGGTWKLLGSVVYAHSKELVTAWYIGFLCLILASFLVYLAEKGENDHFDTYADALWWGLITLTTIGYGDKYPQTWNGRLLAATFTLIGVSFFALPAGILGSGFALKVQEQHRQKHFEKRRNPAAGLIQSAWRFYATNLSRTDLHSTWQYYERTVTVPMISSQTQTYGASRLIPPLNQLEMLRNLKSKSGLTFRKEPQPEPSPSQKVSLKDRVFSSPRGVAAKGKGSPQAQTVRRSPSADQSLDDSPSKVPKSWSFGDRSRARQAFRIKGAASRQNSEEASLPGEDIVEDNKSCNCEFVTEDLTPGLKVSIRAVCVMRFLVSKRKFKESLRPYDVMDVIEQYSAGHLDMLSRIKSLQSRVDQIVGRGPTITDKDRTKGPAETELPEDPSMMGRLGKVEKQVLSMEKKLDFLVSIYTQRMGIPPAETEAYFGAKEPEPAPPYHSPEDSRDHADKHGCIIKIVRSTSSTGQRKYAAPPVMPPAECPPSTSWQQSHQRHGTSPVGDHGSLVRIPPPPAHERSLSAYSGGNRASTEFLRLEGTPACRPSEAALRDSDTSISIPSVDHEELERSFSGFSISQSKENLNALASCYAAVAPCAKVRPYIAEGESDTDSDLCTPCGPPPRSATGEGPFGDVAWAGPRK
KCNQ2 pot baseline: recorded beside KCNQ2 pot, whose call it bears; B-score; compound at 10 µM; measured here: initial fluorescence intensity artifact check;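 brightness before thallium and not channel activity; 0 = typical well and far values either way flag optical interference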
The depositor's hits bear a star. This is a subset; rates above refer to the full screens.

Below each SMILES: KCNQ2 pot	KCNQ2 pot baseline
COc1ccc(NC(=O)/C(=C\c2ccncc2)NC(=O)c2ccccc2)cc1
→ 0.82	0.02
COCCCNC(=O)CC(NS(=O)(=O)c1ccc(OC)cc1)c1ccc(OC)cc1 (stereo not given)
→ 1.8	0.54
COc1ccc(NC(=O)CC(C(=O)O)N2CCCCC2)cc1 (stereo not given)
→ 0.54	-0.38
O=C(NOC(=O)c1ccccc1Cl)c1cccs1
→ 0.07	-0.24
Cc1ccc(NS(=O)(=O)c2ccc(N3C(=O)CCC3=O)cc2)cc1
→ 1.4	-1.1
CCOC(=O)c1ccc(NC(=O)CSc2nnc(CC)o2)cc1
→ 0.3	1.4
O=C(NCc1ccco1)c1ccc(OCC2CCCO2)cc1 (stereo not given)
→ 0.97	-0.04
O=C(Nc1ccc2oc(-c3cccnc3)nc2c1)c1cccnc1
→ 0.05	-1.3
Cc1nn(-c2ccc(Cl)cc2)c2[nH]c(CCl)cc(=O)c12
→ 0.86	1.4
COc1ccc(/C=C/C(=O)OCC(=O)NCc2cccs2)cc1OC
→ 0.71	-0.94
COc1ccccc1NC(=O)CSc1nc2sc3c(c2c(=O)n1-c1ccccc1)CCN(C)C3
→ 1.1	0.43
CN(c1ccc(O)cc1)c1nc(-c2cccnc2)cs1
→ 1.8	-0.98
CCc1cc2c(=O)c(-c3nc4ccccc4[nH]3)coc2cc1OC(=O)N1CCOCC1
→ 0.03	0.14
COc1ccc(OCc2cc(C(=O)NC(C)Cc3cccnc3)no2)c(Cl)c1 (stereo not given)
→ 0.73	1.5
COc1cc2c(cc1OC)CN(C(=O)CNC(=O)c1ccc(OC(F)F)cc1)CC2
→ 0.27	0.64
CCN(CC)CCCN1C=C2C(=O)C(C)(OC(=O)C3CCCC3)C(=O)C(c3ccccc3)=C2C=C1CCCC(=O)OC (stereo not given)
→ 1.4	-0.03
Fc1ccc(OCc2nn3cnnc3s2)cc1
→ 0.65	-1.4
CCCCc1ccc(NC(=O)Nc2cccnc2)cc1
→ 4.8	-1
O=C(O)Cn1nc(C(F)(F)F)c2c1CCCC2
→ 0.59	-4.1
Cc1ccc(CNC(=O)C2CCN(S(=O)(=O)N3CCCCC3)CC2)cc1
→ 0.14	-0.27
Cc1cc(C)cc(C(=O)NC(CC(N)=O)c2ccc(N3CCC(N4CCCCC4)CC3)c([N+](=O)[O-])c2)c1 (stereo not given)
→ 0.52	0.44
Cc1c(NS(=O)(=O)c2cccc(C(=O)OCC(=O)N(C)C3CCCCC3)c2)c(=O)n(-c2ccccc2)n1C
→ 0.11	0.01
CSc1ccc(C2NC(=O)CCC2[N+](=O)[O-])cc1 (stereo not given)
→ 0.71	-0.26
COc1ccc(CN(C)C(=O)c2cnc(OC)cc2C(F)(F)F)c(OC)c1
→ 0.51	-0.09
Cc1ccc(-n2c(=O)c3sccc3n(Cc3cc(=O)n4ccccc4n3)c2=O)cc1F
→ 0.51	-0.91
Cc1ccccc1CN1CCC(n2nccc2NC(=O)CCCc2ccccc2)CC1
→ 0.07	-1.7
CCOc1ccc(NS(=O)(=O)c2cnc(Cl)c(Cl)c2)cc1
→ 1.2	-0.29
COc1ccc(-c2c(C(F)(F)F)[nH]n3c(=O)cc(-c4ccccc4)nc23)cc1
→ 15*	0.4*
Cc1cccc(NC(=O)c2ccc3ccccc3n2)n1
→ 0.11	0.59
O=C(N/N=C/c1cccc([N+](=O)[O-])c1O)c1cccs1
→ 6*	-1.6*

In the list so far, these contain a CF3 group.
Below each SMILES: KCNQ2 pot	KCNQ2 pot baseline
O=C(O)Cn1nc(C(F)(F)F)c2c1CCCC2
→ 0.59	-4.1
COc1ccc(CN(C)C(=O)c2cnc(OC)cc2C(F)(F)F)c(OC)c1
→ 0.51	-0.09
COc1ccc(-c2c(C(F)(F)F)[nH]n3c(=O)cc(-c4ccccc4)nc23)cc1
→ 15*	0.4*

Following part.
Below each SMILES: KCNQ2 pot	KCNQ2 pot baseline
Cc1ccc(NC2=C(Cl)C(=O)N(C3CCCCC3)C2=O)cc1
→ 2.9	-2.2
Cc1csc(SCC(=O)c2cc(C)n(Cc3cccs3)c2C)n1
→ 0.37	-1.5
Oc1cccc2ccc(/C=C/c3ccc(Br)s3)nc12
→ 1.1	-0.01
Nc1cc(N)nc(SCC(=O)c2ccccc2)n1
→ 0.96	0.11
Cc1ccccc1NC(=O)C1C2/C=C\CCCCC21 (stereo not given)
→ 5.4*	-0.08*
C=CCN=C1SC(CC)C(=O)N1S(=O)(=O)c1ccc(C)cc1 (stereo not given)
→ 0.59	-0.74
CCN(CC(=O)Nc1c(F)cccc1F)C(=O)Cc1ccc(OC)c(S(=O)(=O)N2CCOCC2)c1
→ 0.38	-0.9
CCN1CCN(C(c2cccs2)C(C)NC(=O)NC2CCCCC2)CC1 (stereo not given)
→ 1.7	-0.26
COC(=O)c1ccc(NC(=S)NC2CC(C)(C)NC(C)(C)C2)cc1
→ 0.36	4.3
Cc1cccc(CNC(=O)C2CCC(=O)N(CCc3cccc(F)c3)C2)n1 (stereo not given)
→ 0.84	-1.2
Cn1c(=O)c2c(nc(CN3CCN(CCO)CC3)n2Cc2cccc3ccccc23)n(C)c1=O
→ 0.55	0.01
CCOc1cc(/C=C2\SC(=O)N(c3ccc(O)cc3)C2=O)ccc1O
→ 0.05	-0.02
CCOc1ccc(C(C(=O)NCC2CCCO2)N(C(=O)c2snc(C(N)=O)c2N)c2ccc(F)cc2)cc1 (stereo not given)
→ 0.63	0.39
CCOC(=O)N1CCN(S(=O)(=O)c2cc(OCC)ccc2OCC)CC1
→ 0.04	-0.79
O=C(CCN1CCN(c2ccccc2)CC1)N/N=C/c1ccccc1OC(F)F
→ 0.3	0.91
CCOC(=O)c1sc(N)c(C(=O)Nc2ccccc2OC)c1C
→ 0.99	0.32
CSc1nc2ccc(NC(=O)c3cc4ccccc4o3)cc2s1
→ 0.77	-2
Cn1nnnc1SCC(=O)NC(=O)c1cccc([N+](=O)[O-])c1
→ 1.6	-0.27
Nc1nccc(-c2cc(-c3ccc(Cl)cc3Cl)no2)n1
→ 0.28	-2.1
CN(C(=O)COC(=O)/C=C/c1cccc([N+](=O)[O-])c1)C1CCS(=O)(=O)C1 (stereo not given)
→ 0.72	0.26
Cc1nnc(NC(=O)CSc2ccc3nnc(-c4ccccn4)n3n2)s1
→ 0.74	-0.08
CCOc1ccc(C(=O)Nc2ccc(-c3cc4ccccc4oc3=O)c(C)c2)cc1[N+](=O)[O-]
→ 0.84	0.2
CC(=O)Nc1ccc(Oc2cc(N)cc([N+](=O)[O-])c2)cc1
→ 0.64	0.11
COc1ccc(C(=O)CSc2nnc(CNC(=O)c3ccccc3)n2C)cc1
→ 0.26	0.09
S=c1nc(-c2ccc(Br)cc2)oc2c1CCCC2
→ 2.5	-0.17
COc1ccc(-n2nc3c(c2NC(=O)COc2ccccc2F)CS(=O)(=O)C3)cc1
→ 0.19	0.06
Nc1c(Cl)ncnc1N1CCOCC1
→ 1	0.17
C=CCC(C#Cc1ccccc1)[N+](C)(C)CC=C (stereo not given)
→ 0.16	0.22
CCOC(=O)C1(C)C=C(Nc2ccc(OC)cc2)C(=O)N1c1ccc(OC)cc1 (stereo not given)
→ 0.44	-1.8
Cc1ccc(NC(=O)C(=O)NCCOc2ccc(Cl)cc2)c(C)c1
→ 0.01	0.87
CCCCCOCC1CC(C/C(C)=N/NC(N)=S)C(=O)O1 (stereo not given)
→ 0.39	0.24
CCOC(=O)C1(Cc2ccccc2)CCN(Cc2cccc(OC)c2O)CC1
→ 0.37	2.9
O=[N+]([O-])c1ccccc1OCCOCCOc1cccc2cccnc12
→ 0.45	-0.22
Cc1nn(C)cc1CNC(=O)c1cnn2c1NC(c1ccc(Br)cc1)CC2C(F)(F)F (stereo not given)
→ 2.7	-2.1
Cc1cccc(NC(=O)COC(=O)c2ccccn2)c1
→ 1.2	1.6
O=C(c1cccnc1)N1CCN(c2ccccc2Cl)CC1
→ 1.2	0.42
CCOC(=O)N1CCC(NC(=O)c2cc(C(=O)Nc3cccc(C(F)(F)F)c3)ccc2CO)CC1
→ 0.89	-0.19
CCN(CC)S(=O)(=O)c1ccc2oc(C(=O)NCCCN3CCOCC3)c(C)c2c1
→ 0.04	0.07
Cc1ccc(CN2CCN(CC(=O)NC(C)c3ccc4c(c3)OCCO4)C2=O)cc1 (stereo not given)
→ 0.83	1.7
COc1ccc(/C=C(\NC(=O)c2ccccc2)C(=O)NCCC(=O)O)cc1
→ 0.02	-1.1
CC(C)CNC(=O)C(=O)NCCC1CCCCN1S(=O)(=O)c1cccs1 (stereo not given)
→ 0.28	-1.5
CCCCn1c(N)c(NCCC)c(=O)[nH]c1=O
→ 0.03	0.79
Cc1ccc(Cl)cc1NC(=O)C1CCCCC1C(=O)O (stereo not given)
→ 0.46	0.27
CCCOc1nc2c(c(=O)n(C)c(=O)n2C)n1C
→ 0.28	0.75
Cc1ccc(-c2c[n+](Cc3ccc(Cl)cc3)c3n2CCC3)cc1
→ 0.42	-2.4
Cc1ccn(CC(=O)NC2CC(C)(C)Cc3c2cnn3-c2ccc(F)cc2)n1 (stereo not given)
→ 0.65	-0.01
COc1ccc(-n2nc3c(c2NC(=O)CCCl)CSC3)cc1
→ 1	0.02
Cc1nnc(NC(=O)CSc2nnc(C)n2Cc2ccccc2)s1
→ 0.49	0.01
c1ccc2c(N3CCOCC3)nc(-c3ccncc3)nc2c1
→ 0.95	-1.3
CCCCCCCC(=O)Nc1cc(C(=O)NCCC)ccc1N1CCC2(CC1)CC(c1cccc(Br)c1)=NO2
→ 0.07	-2.4
O=C(NCc1ccccc1)c1onc(CSc2nc3ccccc3[nH]2)c1C(=O)NCc1ccccc1
→ 0.01	-0.34
COC(=O)c1sccc1NN1C(=O)c2ccccc2C1=O
→ 0.91	0.38
Cc1ccc(-n2nnc3c(SCC(=O)NCc4ccco4)ncnc32)cc1
→ 0.62	0.77
Cc1cc(=O)oc2cc(OC(=O)CCCCCN3C(=O)c4ccccc4C3=O)ccc12
→ 0.36	-2
CCOCCn1ccc2c(OCC(=O)Nc3ccc(OC)c(OC)c3)cccc2c1=O
→ 1.6	0.01
CCc1nc2ccccc2n1CC(O)COCC1CC=CCC1 (stereo not given)
→ 0.16	-2.2
CCCCNc1cc(Cl)nc(N)n1
→ 0.7	0.44
COc1ccc(-c2[nH]ncc2CNCCn2cccn2)c(F)c1
→ 0.13	0.37
CCOC(=O)c1ccccc1NC(=O)Cc1c(C(=O)O)n(C)c2ccccc12
→ 0.72	2
CCOc1cc(C)c(Cl)cc1S(=O)(=O)N(C)C
→ 0.59	-1.6

Remaining list, next part
Molecule	KCNQ2 pot	KCNQ2 pot baseline
O=C(NCc1nnc(SCC(=O)N2CCN(c3ccccc3)CC2)o1)c1c(F)cccc1Cl	0.95	0.02
CCCSc1nc(C)c(C(C)=O)cc1C#N	0.41	1.1
C=CC(=O)Nc1sc2c(c1C(N)=O)CCCC2	0.64	-1.4
CN(Cc1ccc(Cl)cc1)C(=O)c1cc(S(=O)(=O)N2CCOCC2)ccc1N1CCCC1	0.28	-2.3
CC1CCN(Cc2nnnn2CCCC(=O)N(C)C(C)c2ccccn2)CC1 (stereo not given)	0.31	0.21
CC(/C=N/NC(=O)c1ccccn1)=C\c1ccco1	1.5	-0.68
CCCOc1ccc(C(O)(CCC)CCN2CCCCC2)cc1 (stereo not given)	2.1	-1.2
CCOc1ccc2nc(N3CCC(C(=O)N4CCN(c5ccccn5)CC4)CC3)sc2c1	0.75	-1.4
Cc1ccc(-c2ccc(/C=N/O)o2)cc1[N+](=O)[O-]	0.77	-2.2
COc1cc(/C=N/N2CCN(c3ccccc3)CC2)ccc1OC(C)=O	0.13	-0.03
CNc1nnc(-c2cc3cc(Cl)ccc3oc2=O)s1	0.55	0.92
CCCNC(=O)c1cc(S(=O)(=O)N2CCCCC2)ccc1N1CCOCC1	1.6	-2.3
CCCCN(CC)CCNC(=O)c1cc2c(=O)n(CC)c3ccccc3c2s1	1.1	-0.55
Cc1ccc2nc(C(=O)O)c(C(=O)O)nc2c1	2.3	-0.44
O=C(O)c1c2c(nc3ccc(F)cc13)CCC2	0.09	-0.85
Cc1cccc(C(=O)NNC(=O)C(=O)NC(C)(C)C)c1	3.2	0.34
O=C(Nc1ccc(Cl)c(Cl)c1)Nc1cc(C(=O)NC2CC2)ccc1Cl	0.23	0.49
CC(C(=O)Nc1cccc([N+](=O)[O-])c1)n1nnc2ccccc21 (stereo not given)	1	1.9
CCCn1c(O)c2ccc(C(=O)N=NC(=O)c3cccnc3)cc2c1O	2.4	3.2
COc1ccc(/C=C/C(=O)c2oc3ccc(F)cc3c2C)cc1	1.1	-0.05
NS(=O)(=O)c1ccc(NC(CNS(=O)(=O)c2ccccc2)c2ccccc2)cc1 (stereo not given)	1.2	2

Three entries from above, arranged by molecular weight, largest number first:
Molecule	KCNQ2 pot	KCNQ2 pot baseline
Cc1ccc(CN2CCN(CC(=O)NC(C)c3ccc4c(c3)OCCO4)C2=O)cc1 (stereo not given)	0.83	1.7
CCOC(=O)C1(C)C=C(Nc2ccc(OC)cc2)C(=O)N1c1ccc(OC)cc1 (stereo not given)	0.44	-1.8
Cc1ccc(NC(=O)C(=O)NCCOc2ccc(Cl)cc2)c(C)c1	0.01	0.87

2 entries from above, as labelled records.
smiles: CC1CCN(Cc2nnnn2CCCC(=O)N(C)C(C)c2ccccn2)CC1 (stereo not given)
  KCNQ2 pot: 0.31	KCNQ2 pot baseline: 0.21

smiles: CC(/C=N/NC(=O)c1ccccn1)=C\c1ccco1
  KCNQ2 pot: 1.5	KCNQ2 pot baseline: -0.68
